Compound activity (PubChem)
Mtb H37Rv: Mycobacterium tuberculosis H37Rv growth inhibition, cell based, confirmatory dose response (AID 1949); M. tuberculosis H37Rv growth inhibition; most inactive calls were filed without a number and no value below 0 was filed; inhibition, % at 10 µg/mL, or IC50 in µg/mL where a hit was titrated; actives 1.6% (n = 100,000);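 active = confirmed in a dose series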;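 note: bacteria grown 7 days with compound before Alamar blue readout; 0% = untreated bacteria and 100% = reference antibiotic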
Starred values were filed as active, the others as inactive; i = inactive. Some of the compounds tested. The share of hits here may be higher or lower than overall.

Molecule	Mtb H37Rv
CCC(C)c1ccc(OCC(=O)Nc2ccc(NC(=O)c3ccccc3)c(C)c2)cc1 (centres undefined)	i
CC(=O)NC(Cc1c[nH]c2ccccc12)C(=O)NCCOc1cc(C)ccc1C(C)C (centres undefined)	i
COc1ccc(Cc2nnc(SCC(=O)Nc3ccccc3C(C)C)n2C)cc1	i
CS(=O)(=O)N(CC(=O)NCc1ccccn1)c1cc(Cl)cc(Cl)c1	i
Cc1cc(C(=O)NCCN(C)C)c(C)o1	i
COc1ccccc1C(=O)Nc1cccc(-c2cn3ccsc3n2)c1	31.0%
CC(=O)Nc1cccc(N2C(=O)c3cccc4c([N+](=O)[O-])ccc(c34)C2=O)c1	i
C=CCOC(=O)C1=C(C)NC(=S)NC1c1ccc(OC)cc1 (centres undefined)	0.6%
COc1cccc2cc(C(=O)Nc3cccc(Cn4cccn4)c3)c(=O)oc12	i
O=C(Cn1nc(-c2cccc([N+](=O)[O-])c2)c2ccccc2c1=O)NC1CCCCC1	21.9%
O=C(Nc1ccc(Cl)cc1C(=O)N1CCCC1)c1ccco1	i
N#Cc1cc2sc3nc4ccccc4n3c2cc1C#N	1.7%
Cc1nc2ccc(S(=O)(=O)NCc3ccccc3)cc2s1	0.4%
CS(C)=C1C(=O)NC(=O)N(c2ccccc2F)C1=O	4.4%
Cc1nc(SCC(=O)N2c3ccccc3Sc3ccccc32)nc2c1CCCC2	8.5%
Cc1nnc(SCC(=O)Nc2ccc3c(c2)OCCO3)s1	i
CCOc1cc(CO)ccc1OCc1ccccc1F	i
COc1ccc(CC(=O)NNC(=O)Nc2cccc(C)c2C)cc1	i
Cc1cc(C)cc(OCC(=O)Nc2ccc(OCC(=O)O)cc2)c1	i
Cc1c(C(=O)O)oc2c1C(=O)CSC2	i

Next entries
Molecule	Mtb H37Rv
O=C(c1ccccc1)N1CCC(N(CCc2ccccc2)Cc2ccccc2)CC1	5.4%
CC(C)C(=O)Nc1cccc(C(=O)Nc2cc(F)cc(F)c2)c1	0.4%
CC(C)NCCCCOc1ccc(Cl)c(Cl)c1	1.0%
CCCC(CCC)C(=O)Nc1ccc(NC(=O)c2cccs2)cc1	i
COc1ccc([N+](=O)[O-])cc1NC(=O)CSc1ccc(C)cc1	1.6%
O=C(O)c1cc(-c2ccc(Cl)cc2Cl)on1	i
Cc1cccc(OC(C)c2nc3ccccc3[nH]2)c1 (centres undefined)	4.0%
CCc1c(C)sc(NC(=S)NC(C)C2CCCO2)c1C(=O)OC (centres undefined)	i
COc1ccccc1C1C(C(=O)Nc2cccc(C(F)(F)F)c2)=C(C)NC2=C1C(=O)CCC2 (centres undefined)	i
Cc1ccccc1N1C(=O)CC(Sc2nc3ccccc3s2)C1=O (centres undefined)	2.9%
Cc1ccc(C)c(OCCCC(=O)Nc2nccs2)c1	i
O=C(CSc1nc(O)cc(=O)[nH]1)Nc1cccc(C(F)(F)F)c1	i
COC(=O)c1sccc1NC(=O)c1c(C)noc1C	i
COC(=O)Cc1cc(=O)[nH]c(/N=C(\N)Nc2ccc(C)cc2C)n1	i
Cc1cc(C)c(NC(=O)CN(c2ccc(Oc3ccccc3)cc2)S(C)(=O)=O)c(C)c1	i
CC(C)(C)c1ccc(C(=O)NCCOc2ccccc2)cc1	1.1%
Cc1cc(NC(=O)CSc2nnc(-c3ccncc3)n2-c2ccc(F)cc2)ccc1Br	i
Cc1ccccc1C(=O)Nc1ccc(N2CCN(C)CC2)cc1	i
O=Cc1cn(CC(=O)N2CCc3ccccc32)c2ccccc12	i
O=C(Cc1ccccc1)NC1c2ccccc2-c2ccccc21	i

Next part:
Molecule	Mtb H37Rv
Cc1nc2cc(-c3ccccc3)ccc2o1	i
O=C(CSc1nc2ccccc2c(=O)n1-c1ccccc1)NC1CCCCCC1	0.7%
CCCCNCCOc1ccc(C)cc1Br	3.8%
Nc1ncc2c(n1)CC(c1ccco1)CC2=O (centres undefined)	i
Cc1ccc(S(=O)(=O)N(CC(=O)Nc2ccccc2Br)c2ccccc2F)cc1	i
Cc1cc(C(F)F)n2nc(C(=O)Nc3c(C)nn(Cc4ccc(Cl)cc4)c3C)nc2n1	i
CCCc1nnc(NC(=O)Cn2cnc3ccccc3c2=O)s1	i
C=CCn1cnc2c(NCc3ccccc3)ncnc21	i
Cc1nc(SCC(=O)Nc2ccc(Cl)cc2)[nH]c(=O)c1Cc1ccccc1	0.5%
COc1ccc(S(=O)(=O)N(C)CC(=O)Nc2ccc(S(N)(=O)=O)cc2)cc1C	i
O=C(Nc1cnn(Cc2ccc(F)cc2)c1)c1cnn2c(C(F)F)cc(-c3ccccc3)nc12	i
Cc1nnc(SCC(=O)NC2CCCCC2)s1	i
Cc1nc(NCCNc2nc(C)c(C(=O)Nc3ccccc3)s2)sc1C(=O)Nc1ccccc1	11.5%
CCC(=O)N(Cc1cc2ccccc2[nH]c1=O)c1ccc(C)cc1C	i
COC(=O)c1ccc(NC(=O)C2CCN(C(=O)Cc3ccccc3)CC2)cc1	i
CCn1c(C(O)c2ccc(C(C)C)cc2)nc2ccccc21 (centres undefined)	4.7%
O=C(Nc1nnc(Cc2ccc(Cl)cc2)s1)C1c2ccccc2Oc2ccccc21	4.6%
COC(=O)c1cccc(Oc2nc(N3CCOCC3)nc(N3CCOCC3)n2)c1	i
CC(C)C(=O)Nc1ccc(NC(=O)c2ccc(C(C)C)cc2)cc1	i
Cc1nc(C(N)=NOC(=O)c2sc3cccc(Cl)c3c2Cl)no1	0.3%

The results go on:
mol | Mtb H37Rv
CC(C)(C)Cc1nnc(NS(=O)(=O)c2ccccc2)s1 | i
Cc1cc2ncn(C(=O)N3CCCC3)c2cc1C | i
C=COCCNC(=O)C(=O)Nc1cccc(C)c1 | i
Cc1cccc(NC(=O)CN(Cc2ccccc2)S(=O)(=O)c2ccc(Cl)cc2)c1 | i
CC(=O)Nc1ccc(-c2csc(NCc3ccccc3)n2)cc1 | i
Cc1ccc(NC(=S)NCc2ccc(Cl)cc2)c([N+](=O)[O-])c1 | i
Cn1c(CN2CCOCC2)nc2cc(NC(=O)c3ccccc3Cl)ccc21 | 0.6%
C1=CCC(CN2CCN(Cc3ccc4c(c3)OCO4)CC2)CC1 (centres undefined) | i
CSc1ccccc1NS(=O)(=O)c1ccc2ccccc2c1 | 0.8%
COc1ccccc1OCC(=O)NCCO | i
Cc1cc(C)cc(OCC(=O)Nc2ccc3oc(-c4ccc(F)cc4)nc3c2)c1 | i
CCN(CC)S(=O)(=O)c1cccc(C(=O)N2CCN(C)CC2)c1 | i

Other results:
mol | Mtb H37Rv
O=C(CSc1nnc(-c2cccnc2)n1-c1cccc(C(F)(F)F)c1)c1ccc(F)cc1 | 1.1%
COc1ccc(NC(=O)N2CCN(c3ccc(F)cc3)CC2)cc1 | i
CCCCNC(=O)c1ccc(CN(c2cc(Cl)ccc2C)S(=O)(=O)c2ccccc2)cc1 | 3.4%
COc1ccccc1OCc1ccc(C(=O)Nc2ccc(Cl)c(Cl)c2)o1 | i
Cc1ccc(NC(=O)COc2ccccc2C(=O)NC(C)c2ccccc2)cc1[N+](=O)[O-] (centres undefined) | 23.2%
CC(=O)Nc1cccc(NC(=O)Nc2cccc(C(F)(F)F)c2)c1 | i
Cc1cc(C)n(-c2nc(N3CCOCC3)nc(N3CCOCC3)n2)n1 | i
COC(=O)c1ccc2nc(NC(=O)CSc3nc(N)cc(=O)[nH]3)sc2c1 | i
CCn1c(=O)c2cc(S(=O)(=O)NCc3ccccc3)ccc2n(CC)c1=O | i
N/C(Cc1ccc([N+](=O)[O-])cc1)=N\OC(=O)Cc1cccs1 | i
Cc1nnc(SCC(=O)Nc2c(C)n(C)n(-c3ccccc3)c2=O)s1 | i
Clc1ccc(COc2ccc3ccccc3c2CNCc2cccnc2)c(Cl)c1 | 2.7µg/mL*

Reprinted from the part before: 2 compounds, followed by the next part.
mol | Mtb H37Rv
Cc1nnc(SCC(=O)Nc2c(C)n(C)n(-c3ccccc3)c2=O)s1 | i
Clc1ccc(COc2ccc3ccccc3c2CNCc2cccnc2)c(Cl)c1 | 2.7µg/mL*
CCOC(=O)c1c(-c2ccc(F)cc2)csc1NC(=O)C1CCCO1 (centres undefined) | i
CS(=O)(=O)c1ccc2nc(NC(=O)c3cncc(Br)c3)sc2c1 | i
COc1cccc(NC(=O)c2ccccc2NC(=O)c2ccc(C)cc2)c1 | i
COc1ccccc1N1CCN(C(=O)CN2C(=O)c3cccc([N+](=O)[O-])c3C2=O)CC1 | i
Cc1ccc(S(=O)(=O)Nc2c(C)n(C)n(-c3ccccc3)c2=O)cc1C | i
CCc1ccc(OCC(=O)O/N=C(\N)c2ccncc2)c(Br)c1 | i
O=C(NCc1ccc2c(c1)OCO2)c1cnsn1 | i
O=C(CCCCN1CCC(c2ccccc2)C1)c1ccccc1 (centres undefined) | i
Cc1ccc(S(=O)(=O)N2CCC(Cc3ccccc3)CC2)c(C)c1C | i
Cc1ccc(-c2csc3nnc(SCc4c(C)noc4C)n23)cc1 | i
COc1ccc(-c2cc(C(F)(F)F)nc(SCC(=O)Nc3cccnc3)n2)cc1OC | i
CCCC(=O)Nc1ccc(C(=O)Nc2ccc(Cl)cn2)cc1 | i

Six compounds from above, ordered by SMILES length, descending:
mol | Mtb H37Rv
COc1ccccc1N1CCN(C(=O)CN2C(=O)c3cccc([N+](=O)[O-])c3C2=O)CC1 | i
Cc1cc(C)cc(OCC(=O)Nc2ccc3oc(-c4ccc(F)cc4)nc3c2)c1 | i
CCN(CC)S(=O)(=O)c1cccc(C(=O)N2CCN(C)CC2)c1 | i
Cc1nc2ccc(S(=O)(=O)NCc3ccccc3)cc2s1 | 0.4%
Cc1cc2ncn(C(=O)N3CCCC3)c2cc1C | i
Cc1nc2cc(-c3ccccc3)ccc2o1 | i

Next part.
mol | Mtb H37Rv
CCOc1ccc(-c2csc(NC(=O)c3ccncc3)n2)cc1 | i
COc1ccc2c(c1)CCc1sc(NC(=O)c3cccnc3)nc1-2 | i
CN1CCN(CCOc2ccc3ccccc3c2Br)CC1 | i
O=c1cc(N2CCCC2)c2ccccc2n1-c1ccccc1 | i
CCCCC(=O)Nc1ccc(NC(=S)NC(=O)CC)cc1 | 45.9%
O=C(COc1ccccc1C(=O)Nc1ccccn1)Nc1ccccc1-c1ccccc1 | i
Cc1coc2c(C)c3oc(=O)c4c(c3cc12)CCCC4 | i
Cc1ccc(S(=O)(=O)N(CC(=O)Nc2ccc(C(N)=O)cc2)C2CCCCC2)cc1 | 1.3%
CC(=O)Oc1ccc2nc(-c3ccc(C)c(C)c3)oc(=O)c2c1 | i
COc1ccccc1C(=O)NNC(=S)Nc1ccccc1 | 4.7%
N#CSCCCCOc1ccc(I)cc1 | 14.1%
Cn1nnc(-c2ccc(OCc3ccccc3F)cc2)n1 | 2.8%

The final 5 records of the section before open the next one.
mol | Mtb H37Rv
Cc1ccc(S(=O)(=O)N(CC(=O)Nc2ccc(C(N)=O)cc2)C2CCCCC2)cc1 | 1.3%
CC(=O)Oc1ccc2nc(-c3ccc(C)c(C)c3)oc(=O)c2c1 | i
COc1ccccc1C(=O)NNC(=S)Nc1ccccc1 | 4.7%
N#CSCCCCOc1ccc(I)cc1 | 14.1%
Cn1nnc(-c2ccc(OCc3ccccc3F)cc2)n1 | 2.8%
CC(C)CC(=O)N1CCC(N2CCOCC2)CC1 | i
Cc1ccc(S(=O)(=O)Oc2ccc3ccc(=O)oc3c2)cc1 | i
CCC(C)(C)NC(=O)c1cccc(NC(=O)C(C)C)c1 | i
Cc1ccc(OCCCCn2ncc3ccccc3c2=O)c(C)c1 | i
O=c1oc(CCCCc2nc3sc4c(c3c(=O)o2)CCCC4)nc2sc3c(c12)CCCC3 | i
COC(=O)c1ccc(OC)c(COC(C)=O)c1 | i
C=CCOc1ccc(C2c3c(oc4ccccc4c3=O)C(=O)N2c2nc(C)c(C(=O)OC)s2)cc1 (centres undefined) | i
CSc1nnc(Cc2nnc(SC)n2-c2ccccc2)n1-c1ccccc1 | 0.5%
CC1Cc2ccccc2N1C(=O)c1cccc(I)c1 (centres undefined) | i
Cc1nn2c3cc(N4CCCCC4)ccc3nc2c2ccccc12 | 1.6%
Cc1cc(C)nc(/N=C(/N)Nc2ccccc2F)n1 | 4.5%
CC(Sc1ccccc1)C(=O)Nc1ccc(CC#N)cc1 (centres undefined) | i

Next records follow:
mol | Mtb H37Rv
CC(C)n1c(C(F)(F)F)nc2ccccc21 | i
Cc1ccc(OC(=O)c2ccco2)c(Br)c1 | 8.3%
CCc1ccc2nc(/N=C(/N)NC(=O)c3ccccc3N)nc(C)c2c1 | 12.3%
CCCCc1ccc(NC(=O)CC2CCCCC2)cc1 | 0.9%
Brc1ccccc1CN1CCN(Cc2cccnc2)CC1 | i
COc1ccc(C(=O)Nc2nnc(CCc3ccccc3)s2)c(OC)c1 | i
N#Cc1cccc(Cn2nnc(-c3ccccc3)n2)c1 | i
COc1ccc(-c2cc(C(F)F)n3ncc(C(=O)N4CCC(=O)C5CCCCC54)c3n2)cc1 (centres undefined) | 2.8%
Cc1cc2nnc(SCC(=O)Nc3ccc(Cl)c(C(F)(F)F)c3)n2c2ccccc12 | 0.4%
Brc1cnc(N2CCCC2)nc1N1CCOCC1 | i
COc1ccc(S(=O)(=O)N2CCN(Cc3ccc4c(c3)OCO4)CC2)cc1OC | i
CCOc1ccc(NC(=O)C2CCN(C(=O)c3ccc(Br)cc3)CC2)cc1 | 21.7%

Continuation:
mol | Mtb H37Rv
Cc1ccc(S(=O)(=O)N(C)c2ccccc2C(=O)Nc2ccc(F)cc2F)cc1 | i
CC(NC(=O)CC(c1ccccc1)c1cc(Cl)ccc1O)c1ccccc1 (centres undefined) | 4.5%
O=C1CC(N2CCN(C(c3ccccc3)c3ccccc3)CC2)C(=O)N1c1cccc([N+](=O)[O-])c1 (centres undefined) | i
Cc1cc(NC(=O)CCN2CCC(C(N)=O)CC2)ccc1Br | i
CCOc1ccccc1OCC(=O)Nc1nc2ccc([N+](=O)[O-])cc2s1 | i
Cn1c(SCC(=O)N2CCc3ccccc32)nnc1-c1ccc(NC(=O)c2ccc(F)cc2)cc1 | i
CCc1ccc(N(CC(=O)Nc2cccc(C)c2)S(=O)(=O)c2ccccc2)cc1 | i
Cc1nc2ccc(NC(=O)N(C)C)cc2nc1C | 10.3%
C=CCc1cc(/C=C(/C#N)c2nc3ccc(C)cc3[nH]2)cc(OC)c1O | 0.8%
Cc1ccc(C(CCNCc2ccco2)c2ccco2)cc1 (centres undefined) | i
COC(=O)c1ccc(NC(=O)C(=O)N2CCCCC2)cc1 | i
